# Screening data from PubChem.
# Avidin bead fluor = avidin bead compound fluorescence profile | Avidin beads, compound fluorescence 488/530 nm, flow cytometry; stronger effect = higher value | 0.38% of 220,000 active | fluorescence (KMESF) at 10 µM; in the data active = fluorescence above about 47; also: inactives centre near 10
# Rab2A wt mod = changes GTP binding to wildtype dog Rab2A, up or down. P61105. GST-Rab2 wt beads, Bodipy-GTP binding, flow cytometry. GTP binding activity, % at 10 µM. 0.19% of 190,000 active. AID 760;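 active = GTP binding activity at least 20 points away from 100%, either lowered or raised; inconclusive = signal likely due to the compound's own green fluorescence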;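 also: 0% = beads with excess unlabeled GTP and 100% = no-compound control corrected for plate trend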
# HRas wt GTP = human HRas wildtype GTP binding, change in either direction; P01112; GST-Ras wt beads, Bodipy-FL-GTP binding, flow cytometry; actives lie on both sides; GTP binding activity, % at 10 µM; 0.14% of 190,000 active;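 active = GTP binding activity at least 20% away from the 100% baseline, either lowered as inhibitor or raised as activator; inconclusive = flagged as likely green fluorescent, judged across all proteins in the well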;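 also: 0% = unlabeled GTP competition control and 100% = no-compound control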
# Target sequence (P01112 whole entry, looked up): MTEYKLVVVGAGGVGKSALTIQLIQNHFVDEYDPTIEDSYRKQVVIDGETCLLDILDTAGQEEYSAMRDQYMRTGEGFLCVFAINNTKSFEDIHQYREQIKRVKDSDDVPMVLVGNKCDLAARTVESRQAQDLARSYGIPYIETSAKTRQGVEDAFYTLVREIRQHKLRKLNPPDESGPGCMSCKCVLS
# Rac1 mut GTP = alters GTP binding to activated mutant human Rac1; P63000; GST-Rac1 activated beads, fluorescent GTP binding, flow cytometry; actives lie on both sides; 100% means binding = to untreated wells; percent activity (GTP binding), % at 10 µM; 0.11% of 190,000 active; AID 764;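 active = GTP binding at least 20 percentage points away from the 100% baseline, in either direction, so actives lie on both sides; inconclusive = Compound likely fluorescent itself, or too few beads counted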
# Pf gametocyte = inhibitors of late stage P. falciparum gametocyte viability; AID 743093; 0.065% of 150,000 active; P. falciparum stage V gametocytes, ATP luminescence, 24 h; inhibition, % at 10.9 µM;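 active = inhibition above the mean plus 3 SD of compounds within the control limits, set per campaign, cut at about 38% in these data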;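 also: 0% = DMSO wells and 100% = medium only without gametocytes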
# Cdc42 wt GTP = modulators (inhibitors or activators) of GTP binding to human Cdc42 wildtype; P60953; GST-Cdc42 beads, Bodipy-GTP binding, flow cytometry; actives lie on both sides; percent activity (GTP binding), % at 10 µM; 0.2% of 190,000 active; AID 761;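 active = percent activity GTP binding at least 20 points away from the 100% baseline, either down as inhibitor or up as activator; inconclusive = compound flagged as likely green fluorescent from well-wide comparison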;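 also: median bead fluorescence of bound Bodipy-FL-GTP at 100 nM; 0% = excess unlabeled GTP control and 100% = no compound control; below 100% means less GTP binding so inhibitor and above means activator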
# Target sequence (P60953 whole entry, looked up): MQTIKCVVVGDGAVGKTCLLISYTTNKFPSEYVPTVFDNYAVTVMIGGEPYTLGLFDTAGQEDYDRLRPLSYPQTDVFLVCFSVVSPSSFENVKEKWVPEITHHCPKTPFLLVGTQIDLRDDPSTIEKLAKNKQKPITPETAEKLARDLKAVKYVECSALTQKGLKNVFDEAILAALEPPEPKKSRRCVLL
# Rab7 wt GTP bind = modulators of GTP binding to dog Rab7 wildtype GTPase; AID 758; GST-Rab7 beads, fluorescent GTP binding, flow cytometry; actives lie on both sides; untreated = 100%, excess cold GTP = 0%; 0.055% of 190,000 active; GTP binding activity (percent of control), % at 10 µM;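 active = fluorescent GTP binding to Rab7 beads changed by at least 20 points from the 100% baseline, either direction, mostly lower; inconclusive = compound itself probably fluorescent, or too few beads counted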;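 also: median green fluorescence of bound Bodipy-FL-GTP per Rab7 bead population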
# Rac1 wt GTP bind = human Rac1 wildtype GTP binding, inhibitors and activators. P63000. GST-Rac1 beads, fluorescent GTP binding, flow cytometry; actives lie on both sides; 0 = cold GTP competed, 100 = untreated. AID 757. GTP binding activity (% of control), % at 10 µM. 0.27% of 190,000 active;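 active = GTP binding activity at least 20 points away from the 100% control level, either lower or higher; inconclusive = compound flagged as likely green fluorescent, judged across all proteins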
# The depositor's hits bear a star; ? = inconclusive; . = no result given. Not all compounds are listed; the hit share may differ from the screen's.
# Results follow in this order: Avidin bead fluor	Rab2A wt mod	HRas wt GTP	Rac1 mut GTP	Pf gametocyte	Cdc42 wt GTP	Rab7 wt GTP bind	Rac1 wt GTP bind
CCOc1ccc(NC(=O)Nc2cc(-c3ccccc3)sc2C(=O)OC)cc1
→ 23	97	96	97	14	98	99	102
COc1ccc(Cl)cc1NC(=O)CN1CCc2ccccc21
→ 6	98	98	95	-11	97	105	96
CC(C)CNC(=O)CCCc1ccccc1
→ 9	105	103	101	32	104	104	111
O=C(CSc1ccc2nnc(CCNC(=O)c3ccccc3)n2n1)Nc1ccccc1F
→ 10	100	99	99	-21	97	102	102
O=c1ccc2cc3c([nH]c4ccc(Br)cc43)oc-2c1O
→ 3	99	99	96	.	102	99	99
COc1cccc2sc(Nc3nc(-c4cc5ccccc5oc4=O)cs3)nc12
→ 10	85	86	93	.	93	92	83
CCC(=O)N(CCC(c1ccco1)C(C)C)Cc1ccccc1 (configuration not stated)
→ 6	.	.	.	7	.	.	.
Cc1ccc(-c2nc3cccnc3o2)cc1NC(=O)COc1ccc(Cl)cc1C
→ 8	103	99	100	-18	99	103	89
O=C(Nc1nc(-c2ccccn2)cs1)c1ccc([N+](=O)[O-])o1
→ 7	.	.	.	-7	.	.	.
CN(C)C(=O)c1ccc2c3c(cccc13)CC2
→ 10	99	100	98	15	101	102	100
Cc1ccc(-c2cnc(NC(=O)CCC(=O)N3CCCCC3)n2C)cc1
→ 8	92	94	91	.	95	97	89
COc1ccc(-n2nc(C(=O)Nc3ccc(OC)c(OC)c3)c3c4ccccc4n(C)c3c2=O)cc1
→ 4	96	98	96	17	100	93	100
O=C(N/N=C/C=C/c1ccc2c(c1)OCO2)c1ccc([N+](=O)[O-])cc1
→ 10	98	100	97	.	101	97	102
Cc1ccc(-n2c(N)c(C(=O)Nc3ccccc3F)sc2=S)cc1C
→ 10	103	102	94	-11	97	110	102
Cc1ccc(/C=c2\sc3nc(-c4cccnc4)nn3c2=O)cc1
→ 10	91	93	88	11	89	94	86
CCCCCn1c(N)c(-c2nc3ccccc3o2)c2c([N+](=O)[O-])nn(C)c(=O)c21
→ 10	97	98	97	.	99	97	102
COc1ccc(-c2nc3c(c(=O)[nH]c(=O)n3Cc3ccccc3)n2C)cc1
→ 21	99	100	100	.	102	97	103
O=C(NCCN1CCOCC1)c1cc2c(=O)n3ccccc3nc2n1Cc1ccccc1
→ 35	99	99	96	15	98	99	97
CC1CCN(C(=O)CSc2nnc(-c3ccc(S(=O)(=O)N4CCOCC4)cc3)n2C)CC1
→ 19	98	98	99	.	102	92	104
C=CCn1c(CCNC(=O)c2cccs2)nnc1SCC(=O)Nc1cccc(F)c1
→ 11	104	103	100	-49	106	102	102
CCCCn1c(NC(=O)c2ccccc2)c(C#N)c2nc3ccccc3nc21
→ 8	102	100	100	.	99	104	100
CC(=O)c1cc(C#N)c(N2CCCC2)nc1C
→ 9	99	96	95	.	101	97	100
Cc1ccc(NC2c3ncccc3C(=O)N2c2ccccc2C)cc1C (configuration not stated)
→ 33	101	102	98	.	103	98	103
C1=C(c2ccccc2)Nc2ccccc2N=C1c1ccccc1
→ 2	97	97	98	.	100	98	103
O=C(Nc1ccccc1N1CCCCC1)c1cccc([N+](=O)[O-])c1
→ 11	99	97	99	.	95	96	95
Cc1nn(Cc2ccc(F)cc2)c(C)c1NC(=O)c1cc(-c2ccc3c(c2)OCO3)on1
→ 6	98	100	98	.	102	99	105
Cc1csc(NC(=O)c2cc(-c3ccco3)nc3ccccc23)n1
→ 5	97	98	99	-16	102	100	100
CCCCn1nnnc1NCc1cccs1
→ 11	95	98	94	.	94	99	98
CCOC(=O)C1CCCCN1Cc1ccc(F)cc1 (configuration not stated)
→ 10	97	102	96	-19	97	101	97
COc1nc(-c2ccccc2)ccc1-c1noc(COc2ccccc2)n1
→ 14	?	?	?	.	?	?	?
CCOC(=O)N1CCN(C(=O)CN(C2CCCCC2)S(C)(=O)=O)CC1
→ 8	99	100	97	.	98	100	101
CCOC(=O)c1cc(C(C)=O)c(=O)[nH]c1C
→ 10	103	101	97	1	101	96	101
O=C(Nc1ccc(Br)cn1)c1cccc(-c2cc3ccccc3oc2=O)c1
→ 7	96	99	97	.	101	99	99
CC(/C=N/n1c(-c2cccnc2)n[nH]c1=S)=C\c1ccccc1
→ 9	100	100	96	9	100	96	98
COc1ccc(CCNC(=O)c2cnn3c(C(F)F)cc(C)nc23)cc1OC
→ 7	99	97	97	.	98	100	98
CC(=O)Nc1ccc2nc(NC(=O)CCc3ccccc3)sc2c1
→ 10	99	96	97	.	97	102	100
c1ccc2c(c1)CCCN2Cc1nnc2n1CCCCC2
→ 34	100	100	99	.	100	100	105
Cn1c(OCc2cccnc2)nc2c1c(=O)n(Cc1ccc(Br)cc1)c(=O)n2C
→ 7	95	99	96	9	96	95	98
CCOc1ccc(C(=O)NC(=S)Nc2ccc(NC(=O)c3ccco3)cc2)cc1[N+](=O)[O-]
→ 3	102	101	100	.	102	101	103
Cc1ccccc1OCC(=O)N/N=C/c1cn(C)c2ccccc12
→ 8	.	.	.	17	.	.	.
CCCCN1C(=O)Cc2c1nc(N)c1c(N)nc(N(CCC)CCC)c(C#N)c21
→ 15	100	101	99	.	101	105	101
O=C(CCC(=O)c1cccs1)NC(c1ccccc1)c1ccccc1
→ 8	107	108	102	.	107	101	102
COC(=O)C1=C(C)Nc2nnnn2C1c1cccnc1 (configuration not stated)
→ 7	101	101	98	-7	100	103	104
COc1ccc(CCN2C(=S)N(C)C(=O)C2CC(=O)Nc2ccc(OC)cc2)cc1 (configuration not stated)
→ 11	99	99	97	-29	98	105	103
COc1cc(NC(=O)c2ccnc(N)c2)cc(C(=O)Nc2cccc(C(F)(F)F)c2)c1
→ 7	.	.	.	-34	.	.	.
Cc1sc2ncnc(N3CCOCC3)c2c1C
→ 1	98	100	99	.	101	97	103
COc1ccc(OC)c(-n2c(-c3cccc(O)c3)n[nH]c2=S)c1
→ 13	102	101	99	.	103	99	107
CCOC(=O)c1cc(C(=O)NN)c(=O)[nH]c1C
→ 8	.	.	.	-4	.	.	.
C=CCSc1n[nH]c(-c2ccc(OC)cc2)n1
→ 10	97	96	95	-10	94	98	95
N#Cc1ccc(C2=NC(C(F)(F)F)(C(F)(F)F)c3c(n(Cc4ccco4)c(=O)[nH]c3=O)N2)cc1
→ 35	91	94	89	19	91	94	91

# Next part
# Results follow in this order: Avidin bead fluor	Rab2A wt mod	HRas wt GTP	Rac1 mut GTP	Pf gametocyte	Cdc42 wt GTP	Rab7 wt GTP bind	Rac1 wt GTP bind
Nn1c(SCC(=O)Nc2ccc(S(N)(=O)=O)cc2)nnc1C(F)(F)F
→ 3	.	.	.	9	.	.	.
OC(COCCOc1ccc(Br)cc1)CN1CCCCC1 (configuration not stated)
→ 2	96	97	97	.	100	103	101
CC(C)[C@H](NC(=O)Cc1ccccc1)C(=O)OCc1cc(=O)n2c(n1)sc1ccccc12
→ 16	97	99	99	-22	98	99	102
COc1ccc(C(=O)Nc2cccnc2)cc1
→ 4	96	97	98	.	96	96	100
Cn1nnc2cc(C(=O)NC3CCCCC3)ccc21
→ 27	102	101	102	12	102	98	103
Nc1nc(CSc2ncccn2)nc(Nc2ccccc2)n1
→ 9	98	100	100	.	102	101	103
Nc1nc(/C=C/c2ccc(F)cc2)nc(-c2ccccc2O)n1
→ 14	98	99	99	0	99	94	103
O=C(NCc1ccccc1)N1CCn2c(nc3ccccc32)C1
→ 7	101	101	103	.	104	94	103
CCCCc1nc2ccccc2c(NC(=O)CN2CCN(C)CC2)c1CCC
→ 3	99	98	98	17	98	94	101
CCOc1ccc(CN2CCNC(=O)C2CC(=O)NCCC2=CCCCC2)cc1 (configuration not stated)
→ 9	96	96	96	-32	98	94	99
CCC(=O)Nc1nc2ccccc2n1CCN(C)C
→ 5	98	100	96	.	97	100	101
COC(=O)CCCC1=CC2=CC(=O)C(C)(OC(=O)CCc3ccccc3)C(=O)C2=CO1 (configuration not stated)
→ 8	.	.	.	.	.	.	.
C1CCC(n2nnnc2CN2CCN(C3CCCC3)CC2)CC1
→ 26	102	102	101	1	104	100	110
CN(c1ccccc1)c1nc(-n2ccnc2)nc(-n2ccnc2)n1
→ 14	108	108	103	.	111	99	108
CC(C)CCOc1ccc(/C=C2\CCn3c2nc2cc(C(=O)O)ccc2c3=O)cc1
→ 12	88	89	87	10	86	89	88
CCOC(=O)c1nnn(-c2nc(OC)nc(N3CCCCC3)n2)c1-c1ccccc1
→ 12	99	101	99	.	102	98	99
COC(=O)c1ccccc1NC(=O)c1sc(=S)n(C)c1N
→ 8	100	104	99	.	103	102	107
O=C(Oc1oc(-c2ccco2)nc1C=Nc1ccc(Cl)cc1)c1ccco1
→ 13	93	92	94	-1	93	91	95
CCN(C(=O)c1nn(-c2ccc(OC)cc2)c(=O)c2c1c1ccccc1n2C)c1ccc(OC)cc1
→ 10	94	94	90	-2	88	93	88
COc1c(-c2ccc(O)cc2)oc2cc(O)cc(O)c2c1=O
→ 10	.	.	.	.	.	.	.
CCN(CC)C(=O)CNc1ccc(C(F)(F)F)cc1[N+](=O)[O-]
→ 6	101	102	100	.	101	104	100
N#Cc1ccc(COC(=O)c2ccc3c(=O)[nH]c(CN4CCOCC4)nc3c2)cc1
→ 6	96	97	96	9	95	99	101
COc1ccccc1CNC(=O)c1nn(-c2ccc(C)cc2)c(=O)c2c1c1ccccc1n2C
→ 33	92	93	94	.	94	93	94
O=C(Nc1ccc(Cl)c(Cl)c1)Nc1nnc(-c2ccncc2)s1
→ 12	97	97	98	2	102	100	103
CNC(=O)COC(=O)c1ccc([N+](=O)[O-])cc1Cl
→ 10	100	97	99	16	101	100	100
CC(C)c1ccc(NC(=O)CN(Cc2ccccc2)S(C)(=O)=O)cc1
→ 5	101	100	101	.	102	98	107
COc1ccc(-c2ccc(-c3nnc(-c4ccncc4)o3)cc2)cc1
→ 30	100	99	97	.	101	100	102
CC1CC1C(=O)OCC(=O)NC(=O)NCc1ccco1 (configuration not stated)
→ 28	102	103	99	.	102	102	104
CCCNC(=O)CCC(=O)Nc1ncc(-c2ccc(C)cc2)n1C
→ 18	99	98	101	-14	98	98	99
CCCN1CCN(C(=O)CCCNC(=O)Cn2cnc3sc(C)c(C)c3c2=O)CC1
→ 15	103	102	101	14	98	103	105

# Entries of single compounds, looked up by structure. Screens in order: Avidin bead fluor, Rab2A wt mod, HRas wt GTP, Rac1 mut GTP, Pf gametocyte, Cdc42 wt GTP, Rab7 wt GTP bind, Rac1 wt GTP bind
# COc1ccc(-c2ccc(-c3nnc(-c4ccncc4)o3)cc2)cc1 is listed as 30, 100, 99, 97, ., 101, 100, 102
# COc1ccccc1CNC(=O)c1nn(-c2ccc(C)cc2)c(=O)c2c1c1ccccc1n2C is listed as 33, 92, 93, 94, ., 94, 93, 94
# CC1CC1C(=O)OCC(=O)NC(=O)NCc1ccco1 (configuration not stated) is listed as 28, 102, 103, 99, ., 102, 102, 104
# CCCN1CCN(C(=O)CCCNC(=O)Cn2cnc3sc(C)c(C)c3c2=O)CC1 is listed as 15, 103, 102, 101, 14, 98, 103, 105

# The results go on.
# Results follow in this order: Avidin bead fluor	Rab2A wt mod	HRas wt GTP	Rac1 mut GTP	Pf gametocyte	Cdc42 wt GTP	Rab7 wt GTP bind	Rac1 wt GTP bind
CC(=O)Nc1ccc2nc(NC(=O)COc3ccccc3Cl)sc2c1
→ 19	98	99	96	9	95	102	93
CNC(=O)c1sc(-c2cccnc2)nc1C
→ 9	99	100	97	-25	101	104	105
O=C(CSc1nc(O)cc(=O)[nH]1)N1c2ccccc2CCc2ccccc21
→ 8	.	.	.	-3	.	.	.
CN1C(=O)CS(=O)c2ccc(C(=O)NC3CC3)cc21 (configuration not stated)
→ 9	100	97	97	.	100	98	99
